# MT1-MMP act inh = blocks activation of human MT1-MMP | P50281 | HT1080 RFP-PRO-GFP cells, GFP/RFP ratio fluorescence, overnight; percent of plate control window, DMSO zero | GFP/RFP ratio change, % at 20 µM | 360,000 compounds, 0.061% hits | AID 651647;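 active = GFP/RFP ratio change of at least 30% with cell ATP level not reduced by more than half and red fluorescence within 50% of control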; note: strong numbers were not always called active
#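 Test system: HT1080 cells expressing an RFP-PRO-GFP fluorescent reporter construct / Compound dosing: single-point 20 µM compound, 1% DMSO / Schedule: cells overnight before dosing, compound overnight, 37 °C, 5% CO2 / Evaluation: GFP/RFP fluorescence ratio / Control set: DMSO and RFP-L50D-GFP cell wells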
# PABP polyA inh = blocks human PABP binding to poly(A) RNA | fluorescence polarization | 290,000 compounds, 1% hits | inhibition, % at 35 µM | AID 2014;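 active = 50% or more with normal probe brightness, or confirmed in later tests; about a fifth of its hits are not listed in these tables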;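 note: calls also rest on retests at 20 µM and on dose response follow-up; controls were probe without protein and protein plus probe with vehicle; some compounds called inactive have numbers as strong as hits; many hits fall short of the cut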
# Target sequence (P11940 whole entry, looked up): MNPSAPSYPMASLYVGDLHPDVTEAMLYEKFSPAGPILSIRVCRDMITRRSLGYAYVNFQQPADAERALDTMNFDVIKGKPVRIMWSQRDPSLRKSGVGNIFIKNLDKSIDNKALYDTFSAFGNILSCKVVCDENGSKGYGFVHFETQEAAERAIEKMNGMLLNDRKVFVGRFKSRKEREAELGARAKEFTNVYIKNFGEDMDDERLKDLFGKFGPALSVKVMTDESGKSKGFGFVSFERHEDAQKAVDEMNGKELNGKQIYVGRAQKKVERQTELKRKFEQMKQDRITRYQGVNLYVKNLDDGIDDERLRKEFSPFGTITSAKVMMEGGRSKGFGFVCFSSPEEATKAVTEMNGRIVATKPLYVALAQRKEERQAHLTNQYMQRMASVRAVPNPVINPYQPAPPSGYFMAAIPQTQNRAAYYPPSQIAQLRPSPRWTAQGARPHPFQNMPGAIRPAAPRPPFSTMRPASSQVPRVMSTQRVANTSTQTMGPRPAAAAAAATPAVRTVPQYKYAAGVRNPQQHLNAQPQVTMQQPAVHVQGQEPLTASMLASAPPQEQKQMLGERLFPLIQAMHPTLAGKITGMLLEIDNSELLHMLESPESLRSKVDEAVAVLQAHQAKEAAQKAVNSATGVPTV
# eIF4H FP inh = inhibitors of RNA binding by human eIF4H | Q15056 | eIF4H fluorescence polarization binding assay | inhibition, % at 35 µM | 290,000 compounds, 0.94% hits | AID 2012;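 active = 50% or more with normal probe brightness, or confirmed in later tests; about a fifth of its hits are not listed in these tables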;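 note: calls also rest on retests at 20 µM and on dose response follow-up; 0% = protein and probe with vehicle and 100% = probe without protein; strong numbers were not always called active; many hits fall short of the cut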
# CSC inhib = blocks cancer stem cells. AID 2717. 300,000 compounds, 1.1% hits. cancer stem cell-like cells viability, luminescence. inhibition, % at 7.5 µM;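 active = mean at 75% or more and at least half the replicates too; tested in HMLE shEcad cells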;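 note: 0% = median of negative and 100% = median of positive control wells; the first replicate is given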
# HIV Env fusion = blocks HIV Env-driven cell-cell fusion. inhibition, % at 12.3 µM. HeLa-JRFL Env/CEM21 cell fusion, luciferase. 360,000 compounds, 1.1% hits. AID 651610;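 active = mean replicate inhibition score of at least 50 and every replicate individually at or above 50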;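 note: 0% = plate neutral controls and 100% = maraviroc near 300 nM; one replicate is shown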
# Yeast UUG start = alters start codon recognition fidelity in yeast; S. cerevisiae UUG-firefly luciferase reporter, luminescence/redox ratio; activity score, % at 18.7 µM; 350,000 compounds, 0.13% hits; AID 602363;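 active = replicate mean at a twofold rise or more, about +100% in these data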;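 note: firefly luciferase made from a UUG start codon reports start codon fidelity; reporter light over untreated wells divided by growth signal over untreated wells; some hits fall short of that in this replicate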
# Rce1 inh = blocks yeast Ras-converting enzyme; calls only; yeast membranes, quenched prenylated peptide cleavage fluorescence; AID 2563; Q03530; 290,000 compounds, 0.27% hits;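 active = fall in fluorescence gain of 50% or more versus controls, with final raw signal at or below 3038400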;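 note: plate controls were neutral control wells for no effect and wells lacking membranes for full effect; tested at 10 µM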
# MT1-MMP act inh RFP = second read-out of MT1-MMP act inh, no call of its own (marks repeat the call); RFP signal change, %; measured here: RFP expression control read;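 0 = vehicle wells; hits needed this value within 50% of zero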
# Active calls of the source: *; i = inactive; x = not tested or not shown; & = joins results of further samples.
Structure	MT1-MMP act inh	MT1-MMP act inh RFP	PABP polyA inh	eIF4H FP inh	CSC inhib	HIV Env fusion	Yeast UUG start	Rce1 inh
O=[N+]([O-])c1cc2c(cc1/C=N/Nc1nc(N3CCCC3)nc(N3CCCC3)n1)OCO2	-1	-8	-6	50	12	10	x	i
COc1ccc(NC(=S)Nc2ccccc2OC)c(OC)c1	3	5	13	1	-6	9	x	i
Cc1cccc(OCc2nc(-c3ccc(-n4cccc4)cc3)no2)c1	x	x	-5	1	x	-75	-10	i
CC1(C)N=C(c2ccccc2)C(c2ccccc2)=N1	-3	1	x	x	x	-5	-7	x
CCN(CC)S(=O)(=O)c1ccc(N2CCOCC2)c(NC(=O)c2cnccn2)c1	-2	-1	-7	-1	-5	-35	-12	i
CCN1C(=O)c2cccc3c(S(=O)(=O)Nc4ncccc4C)ccc1c23	3	1	13	7	-5	-75	-10	i
COc1ccc(CCn2c(NN=C(C)C)nc3c2c(=O)[nH]c(=O)n3C)cc1	5	2	-10	-9	-2	-2	-4	i
CC1CCN(C(=O)CNC(=O)CNC(=O)Cc2ccccc2)CC1	-2	-1	-4	-4	-9	-4	-5	i
CCOC(=O)c1[nH]c(C)c(/C(O)=C2\C(=O)C(=O)N(CCN3CCOCC3)C2c2cccs2)c1C (stereo not drawn)	-6	-12	-1	-16	60	-323	1	x
CC12CCC(C(=O)NNC(=O)c3ccc(Br)cc3)(OC1=O)C2(C)C (stereo not drawn)	4	5	-2	-2	-11	-9	x	i
Cc1c(C#N)c2ncn(CCCN(C)C)c(=O)c2n1-c1ccccc1	-8	-1	7	2	-4	x	-5	i
Cc1nnc(SCc2cccs2)[nH]c1=O	7	5	-4	2	-5	x	2	i
CN(CC(=O)Nc1ccc(F)c(F)c1F)C(=O)C1CC(=O)N(C2CCCC2)C1 (stereo not drawn)	-3	4	x	x	x	11	-20	x
CC[C@]12c3[nH]c4cc(-c5ccco5)ccc4c3CCN1C(=O)[C@@H](CC(=O)NCc1cccc(C(F)(F)F)c1)C[C@@H]2C(=O)N1CCN(C(=O)C2CC2)CC1	0	-8	x	x	x	-156	-10	x
Cc1csc(=O)n1CC(=O)OCC(=O)c1c(N)n(C)c(=O)n(C)c1=O	3	3	x	x	-17	-73	-1	i
C=CCc1cc(OC)ccc1OCCCCn1cncn1	-2	-2	17	14	3	0	-19	i
CCOC(=O)C1CCN(C(c2cccs2)c2sc3nc(C)nn3c2O)CC1 (stereo not drawn)	-2	0	4	-2	-15	x	-5	i
CCOC(=O)c1c(-c2ccc(F)cc2)csc1/N=C/N(C)C	1	0	-16	-4	1	-18	15	i
Cc1ccc(N2CC(C(=O)N3CCc4ccccc4C3)CC2=O)cc1 (stereo not drawn)	-2	0	-6	0	-4	-25	-10	i
CCC1(c2ccc(F)cc2)NC(=O)N(CC(=O)Nc2ccc(N3CCCCC3)cc2)C1=O (stereo not drawn)	5	-5	x	x	-1	-14	-17	x
O=c1c2ccccc2cnn1Cc1n[nH]c(=S)n1-c1cc(Cl)cc(Cl)c1	2	0	-7	4	-15	-4	-2	i
O=C1NC[C@@H](Cc2ccc(O)cc2)N(CCc2cccc(F)c2)C1=O	-4	4	4	-10	-9	8	-3	i
CCOc1ccc2oc(C(=O)NCC3CCCO3)c(C)c2c1 (stereo not drawn)	-4	-1	1	-10	-5	-41	7	i
O=C(CN1C(=O)C2C3C=CC(C3)C2C1=O)Nc1ccc(F)cc1 (stereo not drawn)	3	2	-6	-2	-2	2	x	i
O=C(O)c1cccc2c1Cc1cc([N+](=O)[O-])ccc1-2	-5	-2	x	x	x	4	-30	x
CCc1c(O)nc(SCC(=O)Nc2ccccc2)n(C(C)CC)c1=O (stereo not drawn)	0	-5	0	-1	-1	x	-17	i
O=C(/C=C/c1ccccc1)N1CCN(c2c(Cl)cccc2[N+](=O)[O-])CC1	-2	-10	-8	-5	12	18	x	i
CCN1C(=O)[C@@H]2[C@H](C1=O)[C@@H]1CC(C(=O)OC)=C[C@@H](C(=O)OC)C3C1=C(C(=O)C3(CC)CC)[C@@H]2C (stereo partly drawn)	x	x	x	x	0	-10	x	i
O=C(N/N=C(\c1ccccc1)c1ccccn1)c1cccc([N+](=O)[O-])c1	9	0	-4	11	-9	x	x	x
CCOC(=O)CNS(=O)(=O)c1ccc(S(=O)(=O)NC2CC2)cc1	0	3	-4	-12	1	1	-1	i
CCCCN(C(=O)CCC(=O)Nc1cc(C)on1)C(C(=O)NC1CCCC1)c1ccccc1C (stereo not drawn)	-3	-2	3	-11	-10	6	x	i
Cc1ccc(NC(=O)c2cccc3cccnc23)cc1	0	2	3	-5	-12	-82	-9	i
NC(=S)N/N=C/c1ccc(OC(=O)c2cccnc2)cc1	-1	1	x	x	-6	-9	-14	i
COc1cc2c(cc1NC(=S)Nc1cccc3ccccc13)oc1ccccc12	2	-3	14	4	-2	x	-18	i
CCC(=O)c1ccc(OCC(O)CN2CCN(c3ccccn3)CC2)cc1 (stereo not drawn)	8	1	4	-7	-5	-8	-8	i
CCN(CC)CCN(C(=O)C1=COCCO1)c1nc2cc3c(cc2s1)OCO3	1	3	-5	-5	-11	-52	x	i
Cc1cccc(C2c3[nH]c4ccccc4c3CCN2C(=O)c2ocnc2C)n1 (stereo not drawn)	0	2	-3	6	-32	4	-12	i
C=CCOc1ccc2cccc(/C=N/NC(=O)c3cc4cc([N+](=O)[O-])ccc4s3)c2c1	-6	2	-7	-2	5	-57	-18	i
CC1(C)C(=O)Nc2ccccc2N1C(=O)COC(=O)COc1cccc(C(F)(F)F)c1	-4	1	x	x	-1	13	-4	i
O=C(CCC1CCCN(Cc2ccncc2)C1)NCc1ccc(F)c(F)c1 (stereo not drawn)	2	4	-5	-4	31	-7	x	i
CCOC(=O)N1CCC(NC(=O)CCC(=O)N2CC(C)Oc3ccc(Cl)cc32)CC1 (stereo not drawn)	-2	-1	1	-14	-17	x	12	i
O=C(COc1ccc(Cl)cc1Br)NC1CC1	2	-6	x	x	x	16	-21	x
Cc1cc(C)c(C)c(S(=O)(=O)Nc2ccccc2N2CCOCC2)c1C	0	-7	x	x	3	x	-13	x
Cc1ccc(NC(=O)COc2ccccc2)c(NC(=O)c2ccccc2C)c1	0	-1	x	x	x	x	-5	i
Cc1cc(C)c(C#N)c(SCC(=O)Nc2c(C)n(C)n(-c3ccccc3)c2=O)n1	-5	-4	x	x	-5	-12	-11	x
Cc1cccc(C)c1NC(=S)NN1CCN(C)CC1	-2	3	-2	-1	13	-127	-24	i
COc1ccc(CCNC(=O)CCCn2c(=S)[nH]c3cc4c(cc3c2=O)OCO4)cc1OC	4	7	x	x	x	-2	-1	x
C(=C\c1ccccc1)/CN1CCN(C(c2ccccc2)c2nnnn2-c2ccc3c(c2)OCCO3)CC1 (stereo not drawn)	3	-8	x	x	x	-30	-6	x
C[C@H](CO)N1C[C@H](C)[C@@H](CN(C)C(=O)Nc2ccccc2F)Oc2ncc(Br)cc2C1=O	2	4	x	x	x	-23	-6&-6	x
CSc1nc(=S)n(-c2cc(C)ccc2C)c(C)c1C(C)=O	-3	-4	1	-6	-23	5	-16	i
Cc1cccc(NC(=O)Oc2ccc(Cl)c3cccnc23)c1	10	-6	x	x	x	-15	-10	x
NC(=O)Cc1nc(-c2ccccc2)cs1	2	0	4	12	-8	3	-13	i
CCN(CC)S(=O)(=O)c1ccc(Cl)c(NC(=O)c2ccc(C#N)cc2)c1	8	1	-13	1	-8	16	5	i
COc1ccc(-c2csc(NC(=O)Cc3ccccc3F)n2)c(OC)c1	-6	-8	16	-5	21	-3	-22	i
O=C(NCC(=O)N1CCN(C/C=C/c2ccccc2)CC1)c1ccc(OC(F)F)cc1	-4	-2	x	x	x	8	6	x
Cc1ccc(NC(=O)c2oc3ccccc3c2NC(=O)C2CCCO2)cc1C (stereo not drawn)	1	-4	18	2	1	-51	x	i

# Next part:
Structure	MT1-MMP act inh	MT1-MMP act inh RFP	PABP polyA inh	eIF4H FP inh	CSC inhib	HIV Env fusion	Yeast UUG start	Rce1 inh
Cc1ccc(C(O)c2ncc(-c3ccccc3Cl)[nH]2)c(C)c1 (stereo not drawn)	-1	3	x	x	x	4	-12	x
O=C(O)/C=C/c1cn(-c2ccccc2)nc1-c1cccc([N+](=O)[O-])c1	-1	0	0	-7	3	4	x	x
O=C(Nc1ccc(Cl)c([N+](=O)[O-])c1)c1ccco1	2	-5	-11	4	-8	-8	-11	i
Cc1csc(NC(=O)c2ccc3nc[nH]c3c2)n1	6	9	13	-5	1	-12	-41	i
Nc1ncc(Br)cc1S(=O)(=O)N1CCCCCC1	-2	1	x	x	-7	8	-13	i
CC1(C)CC(NC(=O)C2CCC(=O)N(C3CC3)C2)CC(C)(C)C1 (stereo not drawn)	6	6	2	7	-8	0	-9	i
COc1cc(OC)cc(-c2nnc(Nc3nc4c(F)cccc4s3)o2)c1	21	-2	-4	16	-4	x	x	x
O=C(CC(=O)Nc1ccccc1[N+](=O)[O-])Nc1ccccc1[N+](=O)[O-]	5	-5	-3	-4	9	11	-4	i
CC1CN(CCOc2ccccc2-c2ccccc2)CC(C)O1 (stereo not drawn)	2	4	2	8	-8	0	-16	i
COc1ccc(-c2cc(C(=O)NCc3ccco3)c3ccccc3n2)cc1OC	0	-3	x	x	x	6	4	i
COc1ccccc1N(C(=O)c1ccco1)C(C(=O)NC1CCCCC1)c1cc(OC)c(OC)c(OC)c1 (stereo not drawn)	-7	-1	4	0	-6	-9	-10	i
COc1ccc(C(=O)CSc2nnc(NC(=O)C3CC(=O)N(c4cccc(OC)c4)C3)s2)cc1 (stereo not drawn)	4	5	-3	-5	-6	x	-8	i
Cc1ccc(C)c(S(=O)(=O)NC2CCSC2=O)c1 (stereo not drawn)	2	6	x	x	x	3	-12	x
Cc1cc(N2CCN(C)CC2)nc2ccc(NC(=O)c3ccc(Br)o3)cc12	4	-5	-3	1	12	-7	5	i
Cc1ccc(C)c(S(=O)(=O)N2CCN(C(=O)Cn3c(C(F)(F)F)nc4ccccc43)CC2)c1	0	-5	-7	8	-3	x	-17	i
Nc1cc(S(=O)(=O)O)cc2ccc(S(=O)(=O)O)cc12	-51	7	x	x	x	-2	-4	x
CC1(C)CC(NC(=O)CC2CCCCC2)CC(C)(C)N1	6	5	0	8	-16	x	-23	i
O=C(CNC(=O)c1ccccc1)NCC(c1ccco1)N1CCCC1 (stereo not drawn)	1	2	x	x	-18	-2	-4	x
O=C(NC(=S)NCCc1ccccn1)c1ccco1	8	2	14	-5	-11	20	-1	i
O=C(NCc1ccc2c(c1)OCO2)c1ccc(N2C(=O)C3CCCCC3C2=O)cc1 (stereo not drawn)	3	5	3	12	0	x	8	i
CC(=O)N(c1ccccc1Cl)S(=O)(=O)c1ccc(Cl)cc1	-3	-2	-7	-1	-8	13	x	i
CCOCC(=O)Nc1c(C(=O)Nc2ccc(OC)cc2OC)oc2ccccc12	5	5	-9	-4	-3	-36	-5	i
Cc1ccccc1OCC(=O)OCC(=O)N1CCCc2ccccc21	2	6	x	x	-2	0	8	i

# Screens deposited in PubChem by several laboratories.

# Some of the compounds tested; rates above refer to the full screens.
